# Screens deposited in PubChem by Broad Institute.
# FGF22 binding: binders of recombinant human FGF22 by thermal shift; Q9HCT0; SYPRO orange fluorescence; percent of sucrose octasulfate shift, DMSO zero; calls only at 9.99 µM; 340,000 tested, 1.5% active;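 active = melting point raised past a set limit in the mean and every replicate; three in four hits are not shown here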
# Target sequence (Q9HCT0 whole entry, looked up): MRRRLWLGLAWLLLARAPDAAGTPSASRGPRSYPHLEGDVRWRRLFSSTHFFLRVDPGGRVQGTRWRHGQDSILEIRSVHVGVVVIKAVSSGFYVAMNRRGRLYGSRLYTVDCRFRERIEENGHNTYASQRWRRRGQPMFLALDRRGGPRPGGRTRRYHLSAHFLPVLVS
# Calls only; i = inactive; + = active, no number.
SMILES,FGF22 binding
C[C@@H]1CN([C@@H](C)CO)C(=O)c2cccc(NC(=O)Nc3ccc(F)cc3)c2O[C@@H]1CN(C)Cc1ccc(C(=O)O)cc1,i
COC(=O)C1=C(C)N(Cc2cccc(C(F)(F)F)c2)C(=NCC2CC2)NC1c1cccc(Cl)c1 (stereo not drawn),i
Cc1noc(C)c1S(=O)(=O)N(C)C[C@@H]1OCCCC[C@@H](C)Oc2ccc(NC(=O)NC3CCCCC3)cc2C(=O)N([C@@H](C)CO)C[C@H]1C,i
COc1ccccc1-c1ccc([C@@H]2[C@@H](CO)N(C(=O)C3CCOCC3)[C@H]2C#N)cc1,i
O=C(Cc1ccccn1)NCC[C@H]1CC[C@@H](NS(=O)(=O)c2ccccc2)[C@H](CO)O1,i
C[C@@H]1CN([C@H](C)CO)C(=O)Cc2cc(NC(=O)Nc3cccc4ccccc34)ccc2O[C@@H]1CN(C)Cc1ccc(-c2ccccc2)cc1,i
C[C@H](CO)N1C[C@H](C)[C@@H](CN(C)C(=O)Nc2ccc(F)cc2)Oc2ccc(NC(=O)Nc3ccccc3)cc2C1=O,i
CS(=O)(=O)Nc1ccc2c(c1)[C@@H]1C[C@@H](CC(=O)N3CCOCC3)O[C@@H](CO)[C@@H]1O2,i
COc1cccc(S(=O)(=O)N2C[C@@H](O)COC[C@@H]3O[C@@H](CC(=O)Nc4ccccc4)CC[C@H]32)c1,+
CC(C)NC(=O)Nc1cccc2c1O[C@H](CN(C)S(=O)(=O)c1ccccc1)[C@H](C)CN([C@@H](C)CO)C2=O,i

# 4 entries out of the list, ordered by molar mass, highest first:
SMILES,FGF22 binding
C[C@@H]1CN([C@H](C)CO)C(=O)Cc2cc(NC(=O)Nc3cccc4ccccc34)ccc2O[C@@H]1CN(C)Cc1ccc(-c2ccccc2)cc1,i
CC(C)NC(=O)Nc1cccc2c1O[C@H](CN(C)S(=O)(=O)c1ccccc1)[C@H](C)CN([C@@H](C)CO)C2=O,i
COC(=O)C1=C(C)N(Cc2cccc(C(F)(F)F)c2)C(=NCC2CC2)NC1c1cccc(Cl)c1 (stereo not drawn),i
COc1ccccc1-c1ccc([C@@H]2[C@@H](CO)N(C(=O)C3CCOCC3)[C@H]2C#N)cc1,i

# (cont.)
SMILES,FGF22 binding
CC(C)c1cn(CC[C@H]2CC[C@H](NC(=O)C3CCCCC3)[C@H](CO)O2)nn1,i
COc1ccc2c3c(n(C)c2c1)[C@@H](CO)N(C(=O)C1CCOCC1)CC31CCN(C(=O)C2CCOCC2)CC1,i
CCCNC(=O)Nc1ccc2c(c1)C(=O)N(C)C[C@H](OC)[C@@H](C)CN(C(=O)c1ccccc1F)[C@@H](C)CO2,i
COCC#Cc1ccc2c(c1)O[C@@H](CN(C)C(=O)Nc1ccc(OC)cc1)[C@H](C)CN([C@@H](C)CO)S2(=O)=O,i
CCC(=O)N[C@@H]1CC[C@H](CCn2cc(-c3cccc(OC)c3)nn2)O[C@@H]1CO,i
Cc1ccc(S(=O)(=O)N(C)C[C@@H]2Oc3ccc(NC(=O)Cc4ccccc4)cc3C(=O)N([C@H](C)CO)C[C@@H]2C)cc1,i
CC(=O)N1CCN(c2ccc(N3CCN(Cc4ccccc4)[C@H](C)C3)c(C)c2)[C@H](C)C1,i
O=C(C[C@@H]1C[C@H]2c3cc(NC(=O)C4CCOCC4)ccc3O[C@H]2[C@@H](CO)O1)NCc1cc(F)ccc1F,i
CC(C)NC(=O)N(C)C[C@@H]1Oc2ccc(NC(=O)C3CCCCC3)cc2C(=O)N([C@@H](C)CO)C[C@H]1C,i
C[C@@H]1CN([C@H](C)CO)C(=O)c2cccc(NC(=O)NC3CCCCC3)c2O[C@@H]1CN(C)S(=O)(=O)c1ccc(Cl)cc1,i

# New compounds follow.
SMILES,FGF22 binding
Cc1cccc(-c2ccc([C@@H]3[C@H](CO)N4CCCCN(S(=O)(=O)c5cccs5)C[C@@H]34)cc2)c1,i
C[C@H](CO)N1C[C@H](C)[C@H](CN(C)C(=O)Nc2ccccc2)Oc2ccc(NC(=O)Cc3cn(C)c4ccccc34)cc2C1=O,i
CCCNC(=O)N1CC2(CN(C(=O)COC)C2)c2c(n(C)c3cc(OC)ccc23)[C@@H]1CO,i
Cc1noc(C)c1NC(=O)Nc1cccc2c1O[C@@H](CN(C)Cc1ccc(Oc3ccccc3)cc1)[C@H](C)CN([C@@H](C)CO)C2=O,i
COC(=O)C1=C(C)N(Cc2cccc(C(F)(F)F)c2)C(=NCc2ccccc2C(F)(F)F)NC1c1ccccc1C(F)(F)F (stereo not drawn),i
COc1ccc(C(=O)N2CCC[C@@H]2C(=O)N2CCC[C@@H]2C(=O)NCc2ccccc2)cc1F,i
COc1ccccc1-c1ccc([C@@H]2[C@H]3CN(C(=O)c4cccnc4)CCCCN3[C@H]2CO)cc1,i
Cc1ccc(S(=O)(=O)N2CC[C@H]3[C@H](CO)Nc4ccc(Br)cc4[C@H]32)cc1,i
C[C@@H]1CN([C@@H](C)CO)C(=O)c2cc(NC(=O)c3ccccc3)ccc2O[C@@H](C)CCCCO[C@H]1CN(C)Cc1ccc2c(c1)OCO2,i
COc1ccc(NC(=O)Nc2ccc3c(c2)C(=O)N([C@@H](C)CO)C[C@H](C)[C@@H](CN(C)C(=O)Nc2cccc4ccccc24)OCCCC[C@@H](C)O3)cc1,i

# Compounds above with a CF3 group, in the order listed:
SMILES,FGF22 binding
COC(=O)C1=C(C)N(Cc2cccc(C(F)(F)F)c2)C(=NCC2CC2)NC1c1cccc(Cl)c1 (stereo not drawn),i
COC(=O)C1=C(C)N(Cc2cccc(C(F)(F)F)c2)C(=NCc2ccccc2C(F)(F)F)NC1c1ccccc1C(F)(F)F (stereo not drawn),i

# (listing goes on)
SMILES,FGF22 binding
C[C@H](NC(=O)[C@H]1[C@H](CO)[C@H]2Cn3c(ccc(-c4ccccc4)c3=O)[C@@H]1N2C)c1ccccc1,i
Cc1ccccc1S(=O)(=O)N1[C@H](C#N)[C@H](c2ccccc2)[C@H]1CO,i
Nc1[nH]c(C(=O)c2ccccc2)c(-c2cc(F)ccc2Br)c1C(=O)NCCc1c[nH]c2ccccc12,i
Cc1cccc(-c2ccc([C@H]3[C@@H](CO)N4CCCCN(C(=O)NC(C)C)C[C@@H]34)cc2)c1,i
C/C=C/c1cnc2c(c1)C(=O)N([C@@H](C)CO)C[C@H](C)[C@@H](CN(C)C(=O)c1cccnc1)O2,i
COc1ccc(NC(=O)N(C)C[C@@H]2Oc3c(NC(=O)Nc4ccccc4)cccc3C(=O)N([C@H](C)CO)C[C@H]2C)cc1,i
CCNC(=O)C[C@@H]1CC[C@H]2[C@H](COc3ccc(NC(C)=O)cc3C(=O)N2C)O1,i
Cc1noc(C)c1NC(=O)N(C)C[C@@H]1Oc2ccc(NS(=O)(=O)c3cccs3)cc2C(=O)N([C@H](C)CO)C[C@@H]1C,i
CCC(=O)NC[C@@H]1[C@H](c2ccccc2)[C@@H](CO)N1C(=O)C1CC1,i
CN1C(=O)c2cc(NC(=O)c3ccc(F)cc3)ccc2OC[C@H]2O[C@@H](CC(=O)NCC3CC3)CC[C@H]21,i

# Other records
SMILES,FGF22 binding
C[C@@H]1CCCCO[C@@H](CN(C)S(C)(=O)=O)[C@H](C)CN([C@@H](C)CO)C(=O)c2cc(N(C)C)ccc2O1,i
COc1cccc(-c2ccc([C@H]3[C@H]4CN(CC5CCOCC5)CCCCN4[C@H]3CO)cc2)c1,i
CCC(=O)Nc1ccc2c(c1)OC[C@@H](C)N(Cc1cc(-c3ccccc3)on1)C[C@@H](C)[C@H](OC)CN(C)C2=O,i
COC(=O)C[C@H]1C[C@@H]2c3cc(NS(=O)(=O)c4ccccc4)ccc3O[C@@H]2[C@@H](CO)O1,i
C[C@@H]1CN([C@@H](C)CO)C(=O)c2cc(Br)cnc2O[C@@H]1CN(C)Cc1ccccn1,i
COCC#Cc1cnc2c(c1)C(=O)N([C@H](C)CO)C[C@H](C)[C@@H](CN(C)C)O2,i
COc1ccc(S(=O)(=O)N(C)C[C@@H]2Oc3ccc(NC(=O)CCCN(C)C)cc3C(=O)N([C@@H](C)CO)C[C@H]2C)cc1,i
C[C@@H]1CN([C@@H](C)CO)S(=O)(=O)c2ccc(-c3ccc(C(=O)N(C)C)cc3)cc2O[C@H]1CN(C)C,i
COc1ccc(NC(=O)N(C)C[C@H]2Oc3c(NS(C)(=O)=O)cccc3C(=O)N([C@@H](C)CO)C[C@@H]2C)cc1,i
C[C@H](O)C#Cc1ccc2c(c1)O[C@H](CN(C)C(=O)C1CCCCC1)[C@H](C)CN([C@H](C)CO)S2(=O)=O,i

# Next section
SMILES,FGF22 binding
C[C@@H]1CN([C@@H](C)CO)C(=O)Cc2cc(NS(=O)(=O)c3ccccc3)ccc2O[C@@H]1CN(C)C(=O)Nc1ccc(F)cc1,i
COc1ccc(NC(=O)Nc2ccc3c(c2)C(=O)N([C@@H](C)CO)C[C@@H](C)[C@H](CN(C)Cc2ccc(Cl)c(Cl)c2)OCCCC[C@H](C)O3)cc1,i
COC(=O)[C@@H](Cc1ccc(O)cc1)NC(=O)[C@H]1O[C@@H](n2cnc3c(=O)[nH]c(N)nc32)[C@H](O)[C@@H]1O,i
C[C@@H]1CN([C@H](C)CO)C(=O)c2cccc(NC(=O)Nc3cccc4ccccc34)c2O[C@@H]1CN(C)Cc1ccccc1,i
CO[C@H]1CC[C@H]2CCN(C)C(=O)[C@H](C)N(C)C(=O)c3cccc(C#N)c3OC[C@H]1O2,i
Cc1cccc(C)c1NC(=O)C(CCc1ccccc1)N1CCN(CCN(C)C)CC1 (stereo not drawn),i
Cc1ccccc1C(=O)N[C@@H](Cc1cccnc1)C(=O)N1CCC[C@H]1C(=O)NC1CCCC1,i
C[C@@H](NC(=O)C[C@@H]1C=C[C@@H](NC(=O)c2cccnc2)[C@@H](CO)O1)c1ccccc1,i
C[C@@H]1CN([C@H](C)CO)C(=O)c2cc(NC(=O)Nc3cccc4ccccc34)ccc2O[C@@H](C)CCCCO[C@@H]1CN(C)Cc1ccc2c(c1)OCO2,i
COc1cccc(S(=O)(=O)N(C)C[C@@H]2Oc3ncc(C#Cc4ccccc4)cc3C(=O)N([C@H](C)CO)C[C@@H]2C)c1,i

# Continuation.
SMILES,FGF22 binding
N#C[C@@H]1[C@@H](c2ccccc2)[C@H](CO)N1S(=O)(=O)c1ccc(F)cc1,i
CC(C)NC(=O)N(C)C[C@H]1Oc2ccc(NS(=O)(=O)c3ccccc3)cc2CC(=O)N([C@H](C)CO)C[C@@H]1C,i
C[C@@H]1CN([C@@H](C)CO)S(=O)(=O)c2ccc(-c3cncnc3)cc2O[C@@H]1CN(C)Cc1ccncc1,i
COCC(=O)N1[C@H](CO)[C@@H](c2ccc(-c3ccccc3OC)cc2)C12CN(C(C)=O)C2,i
C[C@@H]1CN([C@H](C)CO)C(=O)c2cc(NC(=O)Cc3ccccc3)ccc2O[C@@H]1CN(C)C(=O)Nc1ccccc1,i
CO[C@H]1CN(C)C(=O)c2cc(NS(=O)(=O)CC(F)(F)F)ccc2OC[C@H](C)N(CC2CCCCC2)C[C@@H]1C,i
COc1ccccc1-c1ccc([C@H]2[C@@H](CO)N3CCCCN(C(=O)c4ccncc4)C[C@@H]23)cc1,i
C[C@H]1CN([C@@H](C)CO)C(=O)c2c(c3ccccc3n2C)-c2ccccc2CO[C@H]1CN(C)Cc1ccc(O)cc1,i
CCNC(=O)C[C@@H]1CC[C@H]2[C@@H](COC[C@H](O)CN2C(=O)Nc2ccc3c(c2)OCO3)O1,i
CCCN1C[C@H](C)[C@@H](OC)CN(C)C(=O)c2ccc(NC(=O)c3ccccc3)cc2OC[C@@H]1C,i

# The results go on:
SMILES,FGF22 binding
CN1CCN(C(=O)C[C@H]2CC[C@@H]3[C@H](COC[C@H](O)CN3C(=O)Nc3cc(Cl)cc(Cl)c3)O2)CC1,i
OC[C@@H]1[C@@H](c2ccc(-c3cccc(F)c3)cc2)[C@H]2CN(CCC(F)(F)F)CCCCN12,i
CC(C)C#Cc1cnc2c(c1)C(=O)N([C@H](C)CO)C[C@H](C)[C@@H](CN(C)C(=O)c1ccccn1)O2,i
C[C@H](O)C#Cc1ccc2c(c1)O[C@@H](CN(C)CC1CCOCC1)[C@@H](C)CN([C@@H](C)CO)S2(=O)=O,i
CCNC(=O)[C@@H]1[C@@H](CO)[C@@H]2Cn3c(ccc(C4=CCCCC4)c3=O)[C@@H]2N1C(=O)CC1CC1,i
CC=Cc1ccc2n(c1=O)C[C@H]1[C@H](CO)[C@@H](C(=O)N3CCCCC3)[C@@H]2N1C(=O)C1CCC1 (mixture of isomers),i
O=C(C1CCC1)N1CCCCN2[C@H](CO)[C@H](c3ccc(-c4ccncc4)cc3)[C@@H]2C1,i
CC(=O)N1CCCCN2[C@@H](CO)[C@H](c3ccc(Br)cc3)[C@@H]2C1,i
C[C@H](O)[C@@H]1C(=O)N2CCc3c([nH]c4cccc(-c5ccccc5)c34)[C@@H]2C[C@@H]1N(C)CC1CCCCC1,i
C[C@@H]1CCCCO[C@@H](CN(C)C(=O)Cc2ccccc2)[C@@H](C)CN([C@H](C)CO)C(=O)c2cc(NC(=O)CCCCCC(=O)Nc3ccccc3N)ccc2O1,i

# Fetched by compound from the list above (2):
SMILES,FGF22 binding
COc1cccc(S(=O)(=O)N2C[C@@H](O)COC[C@@H]3O[C@@H](CC(=O)Nc4ccccc4)CC[C@H]32)c1,+
C[C@@H]1CN([C@H](C)CO)C(=O)c2cccc(NC(=O)NC3CCCCC3)c2O[C@@H]1CN(C)S(=O)(=O)c1ccc(Cl)cc1,i

# Next part.
SMILES,FGF22 binding
O=S(=O)(NCc1ccccc1)c1cc(Br)ccc1Br,i
COc1ccccc1NC(=O)N1C[C@H](O)COC[C@H]2O[C@@H](CC(=O)NCc3ccccc3)CC[C@@H]21,i
O=C(C[C@@H]1C[C@@H]2c3cc(NC(=O)c4ccc5c(c4)OCO5)ccc3O[C@@H]2[C@@H](CO)O1)NCc1cccc(F)c1,i
C[C@@H]1CN([C@H](C)CO)C(=O)c2cccc(NC(=O)c3nc4ccccc4s3)c2O[C@@H]1CN(C)C,i
C[C@@H]1CN([C@@H](C)CO)C(=O)c2cc(NC(=O)Nc3cccc4ccccc34)ccc2O[C@@H](C)CCCCO[C@H]1CN(C)Cc1ccc(C(=O)O)cc1,i

# An excerpt; count on the stated rates, not on these rows.
